Bioassay records: PubChem BioAssay, National Center for Advancing Translational Sciences (NCATS)
Vaccinia mCherry: inhibitors of vaccinia virus infection (mCherry reporter signal) | Vaccinia virus mCherry reporter infection, fluorescence; about a quarter of the inactives have no number | Potency, µM (doses to about 36.5 µM), without a hit: at the highest dose activity change, negative = inhibition, most hits filed as inhibitors | 310,000 tested, 0.63% active | AID 720579; active = well fitted inhibition curve with a large enough effect; inconclusive = small, poorly fitted or top-dose-only effect; inactive = no such curve, though single readings can be large or run the other way; tested in A549 cells; further: nearly all actives have a fitted effect of over 35% in size; inactives centre near -10
VACV Venus inh: inhibitors of vaccinia virus (Venus reporter); Vaccinia virus Venus reporter expression, fluorescence; Potency, µM (doses to about 36.5 µM), inactives show at the top dose activity change, negative = inhibition, actives largely listed as inhibitors; 330,000 tested, 0.46% active; active means well fitted inhibition curve with a large enough effect; inconclusive means small, poorly fitted or top-dose-only effect; inactive means no such curve, though single readings can be large or run the other way; tested in A549 cells; further: nearly all actives have a fitted effect of over 30% in size; inactives centre near -10
The depositor's hits bear a star; i = inactive; ? = inconclusive; · = no result given; [ ] = remark or other dose. On the % scale 0 is the no-effect control and ±100 the full control effect; potency means the concentration at half of the fitted maximal effect.

SMILES | Vaccinia mCherry | VACV Venus inh
O=C(Nc1cccc(C(=O)N2CCN(Cc3ccccc3)CC2)c1)c1ccccc1 | -23% | -13%
CCCCCCCC1CC(/C(C)=N/NC(N)=O)OC1=O (centres undefined) | -16% | -10%
COC(=O)C(=Cc1ccc(-c2ccsc2C(=O)OC)o1)C(=O)OC | -23% | -26%
CCC(C)CN1C(=O)CSCC1(C)C(=O)Nc1c(C)cccc1C (centres undefined) | -11% | 2%
CN1N=C(C(=O)N2CCOc3ccc(CN4CCCC(C(=O)c5cccnc5)C4)cc3C2)CCC1=O (centres undefined) | -12% | -7%
O=C(CCNC(=O)c1ccc(Cl)cc1)Nc1ccc(S(=O)(=O)N2CCCCC2)cc1 | i | -13%
COC(=O)[C@@H]1C[C@]2(Br)c3ccccc3N(S(=O)(=O)c3ccccc3)[C@@H]2N1C(=O)OC | -33% | -9%
Cc1ccnc2nc(C(=O)Nc3nnc(CC(C)C)s3)nn12 | · | -20%
COc1ccc(S(=O)(=O)N2CCC(C(=O)N3CCCC3)CC2)cc1 | · | -15%
COc1ccc(NC(=O)/C(Cl)=C(/Cl)S(=O)(=O)Cc2ccccc2)cn1 | · | 22µM*
Cc1c(NS(=O)(=O)c2cc(C(=O)NCCc3ccc(F)cc3)cc(Cl)c2Cl)c(=O)n(-c2ccccc2)n1C | -12% | -8%
O=C(CSc1ccc2c(c1)OCCO2)NC(=O)Cc1ccccc1 | -15% | -1%
Cc1ccc(C(=O)NCCSC2CCCCC2)cc1S(=O)(=O)Nc1ccccc1 | ? | -20%
Cc1cccc(NC(=O)C(=O)NCC(c2ccc3c(c2)OCO3)N2CCN(C)CC2)c1C (centres undefined) | -7% | -8%
CN(Cc1ccccc1)C(=O)CN1C(=O)NC2(CCCc3sccc32)C1=O (centres undefined) | -27% | -27%
CCOc1ccc(-c2c(C)nn3c(-c4ccccc4)c(C(=O)NCCOC)cnc23)cc1OCC | i | -7%
CCCOc1cccc(C(=O)NCCNC(=O)c2ccco2)c1 | i | -15%
CCCC1=C(C(=O)OCC)C(c2cccs2)C(C#N)=C(N)O1 (centres undefined) | -20% | -11%
O=C(COC(=O)c1sc2ccccc2c1Cl)NCC1CCCCC1 | -15% | -11%
Cc1ccccc1Cn1cccc(C(=O)Nc2cc(Cl)ccc2C#N)c1=O | -29% | -29%
Cn1nc(C(C)(C)C)c([N+](=O)[O-])c1C(=O)Nc1ccccc1 | -11% | -12%
Cc1ccc(-n2nc(C)c(NC(=O)CCl)c2C)cc1 | ? | ?
CCCCN1C=CC(=C2N=c3cccc([N+](=O)[O-])c3=N2)C=C1 | -4% | -2%
Cc1ccc(-c2nc3ncccc3o2)cc1NC(=O)COc1ccc(C(C)C)cc1 | -18% | -8%
COC(=O)C[n+]1cccc2ccccc21 | i | -1%

Next compounds follow:
SMILES | Vaccinia mCherry | VACV Venus inh
CC1CCCN(C(=O)CN2C(=O)NC(C)(c3ccc4ccccc4c3)C2=O)C1 (centres undefined) | i | -10%
Cc1cc(C)c2c(C)c(C(=O)Nc3c(C)n(C)n(-c4ccccc4)c3=O)oc2c1 | -6% | -16%
COc1ccc(C(O)c2nc(-c3ccncc3)cs2)cc1 (centres undefined) | 17% | -16%
CCOc1ccc(N2C(=O)NC(=O)/C(=C\c3cc(OC)c(OC)cc3[N+](=O)[O-])C2=O)cc1 | i | 4%
CC(C)OC(=O)CSc1nc2cccnc2n1C1CCCCC1 | i | -12%
CCOC(=O)C1=C(COc2ccccc2)NC(=O)NC1c1ccc(Cl)cc1 (centres undefined) | -16% | -13%
CC(=O)Nc1c(O)nc(SCC(=O)N2CCN(c3ccc(F)cc3)CC2)[nH]c1=O | -11% | -15%
CN1C(=O)CC(c2ccccc2)CC1=O | -18% | -13%
Cc1cc(-n2cnc3c(=O)[nH]cnc32)ccc1N | i | -8%
Nc1cccc(-c2c[nH]c3ncc(-c4cccnc4)cc23)c1 | ? | 10µM*
Cc1ccc(CNC(=O)c2ccc3c(c2)CCN3S(=O)(=O)c2ccccc2)cc1 | -12% | -22%
O=C1CC(c2ccccc2)C(=O)N1c1cccc(O)c1 (centres undefined) | · | -9%
Cc1nc(NC(=O)CSc2nnc3ccccn23)c(Cl)cc1Cl | · | -13%
O=C1N/C(=N\c2ccccn2)SC1Cc1ccc(Cl)cc1 (centres undefined) | -1% | -3%
O=C(C1CCN(S(=O)(=O)c2ccc(Br)s2)CC1)N1CCN(C2CCCCC2)CC1 | ? | -16%
COc1cccc(S(=O)(=O)N(C)C[C@H]2Oc3cc(Br)ccc3S(=O)(=O)N([C@@H](C)CO)C[C@H]2C)c1 | ? | ?
CCNS(=O)(=O)c1ccc(NC(=O)c2cc(C(F)(F)F)nn2C)cc1 | · | -23%
Cc1ccc(C)c(NC(=O)c2cnccn2)c1 | i | -13%
O=c1[nH]c(=O)n(-c2cccc3ccccc23)c(O)c1/C=N/N1CCCCC1 | -8% | -1%
CC(C)Cc1nnc(NC(=O)CCN2C(=O)c3ccccc3C2=O)s1 | i | -9%
NC(=O)NCc1ccc(Cl)cc1 | -13% | -3%
CCOC(=O)c1nnn(-c2nonc2N)c1-c1cccs1 | · | 2%
CC1CC(C)CN(S(=O)(=O)c2ccc(NN)nc2)C1 (centres undefined) | ? | 2%
CC(C)Cn1c(N)c(C(=O)COC(=O)c2ccc3ccccc3n2)c(=O)n(C)c1=O | i | -11%
COc1cccc(C(=O)N2CCN(C(=O)C3CC3)CC2)c1 | i | 17%

Further compounds follow.
SMILES | Vaccinia mCherry | VACV Venus inh
Cc1ccc(CN2C[C@H](Sc3ccccn3)C[C@H]2C(=O)Nc2ccc3sc(C)nc3c2)s1 | -7% | ?
O=C(CSc1ccc(-c2ccccc2)nn1)NCC1CCCO1 (centres undefined) | -11% | -10%
COc1ccc(/C=N/NC(=O)c2ccc(COc3cccc4cccnc34)cc2)cc1OC | -9% | -6%
CCN1CCN(C(=O)COc2ccc(S(=O)(=O)NC(C)C)cc2)CC1 | i | 1%
CN1C(C)(C)c2ccccc2OS1(=O)=O | 0% | -4%
COC(=O)C(CSCc1ccccc1)NC(=O)CSc1nc(N)cc(=O)[nH]1 (centres undefined) | -8% | -6%
Cc1ccc2cc(C3CC(c4ccco4)=NN3C(=O)CCC(=O)O)c(Cl)nc2c1 (centres undefined) | -12% | -12%
Cc1cccc(NC(=O)Nc2cccs2)c1C | -13% | -11%
Cc1ccc(C)c(N2CCN(C(=O)CCc3c(C)nn(-c4ccc(N5CCCC5)nn4)c3C)CC2)c1 | -26% | -23%
O=C(CSc1nc(-c2ccco2)cc(C(F)(F)F)n1)N1CCN(c2cccc(Cl)c2)CC1 | · | -20%
CCOc1ccc(NC(=O)/C(C#N)=C\c2ccc(-c3ccc(Cl)cc3)o2)cc1 | -29% | -20%
CS(=O)(=O)N1CCCc2cc(C(=O)Nc3cccc(C(F)(F)F)c3)ccc21 | -12%[7.34 µM] | -10%[7.34 µM]
OC(c1cccnc1)c1nc(-c2cccc(F)c2)cs1 (centres undefined) | i | -7%
O=C(NCc1nnc2c3ccccc3c(-c3ccccc3)nn12)c1ccc(Cl)cc1 | i | -4%
N=c1c(C(=O)NCC2CCCO2)cc2c(=O)n3ccccc3nc2n1Cc1cccnc1 (centres undefined) | -13% | -7%
CCn1cc(CNCc2cn(-c3ccccc3C)nc2-c2ccc(OC)c(F)c2)cn1 | -9% | -8%
COc1ccc(CCNC(=O)Cn2nc(C)c3c(C)n(-c4ccc(C)cc4)nc3c2=O)c(OC)c1 | -28% | ?
CCOc1ccc(C(=O)Nc2ccccc2N2CCOCC2)cc1 | · | -18%
Cc1ccc(S(=O)(=O)N2CCOCC2)cc1NC(=O)c1ccncc1 | i | 0%
CCCCCCn1c(SCCC)nc2c1c(=O)[nH]c(=O)n2C | · | 7%
C=CCOc1c(Cl)cc(C2NC(=O)NC(C)=C2C(=O)OC)cc1Cl (centres undefined) | ? | -19%
C[C@H]1CN=C(Nc2ccccc2)N1CCCC1CCCCC1 | -11% | -14%
COc1ccccc1CSc1nc2n(n1)C(c1ccccc1)C(C(=O)Nc1ccc(C)cc1)=C(C)N2 (centres undefined) | ? | ?
O=C(NNc1cccc(Cl)n1)c1ccc(Cl)nc1 | -24% | 15%
CCCCN(CCCC)/C(N)=N/c1nc(C)cc(C)n1 | -16% | -7%

New compounds follow.
SMILES | Vaccinia mCherry | VACV Venus inh
CC(C)(C)NC(=O)CSc1nncn1NCc1c(Cl)cccc1Cl | · | -4%
COc1ccc(NC(=O)C2CCN(C3=NS(=O)(=O)C(c4ccc(C)c(C)c4)=C3C)CC2)c(OC)c1 | -17% | -20%
COc1cccc(NC(=O)c2ccccc2-c2nc(-c3ccccc3)no2)c1 | · | -25%
Cc1ccccc1CNC(=O)c1ccc(Cn2c(SCc3cccc(F)c3)nc3cccnc32)cc1 | -18% | -17%
Cc1ccc(Cn2nc(C)c(NC(=O)c3cc(-c4ccc5c(c4)OCO5)on3)c2C)cc1 | ? | ?
Nc1nc[nH]c(=O)c1N=Cc1ccccc1 | i | -10%
CCN1CCN(c2nc3c(C)cccn3c(=O)c2/C=C(\C#N)S(=O)(=O)c2ccc(C)cc2)CC1 | -6% | -15%
Cc1nc(Nc2ccccc2Cl)sc1C(=O)Nc1ccccc1 | ? | -26%
O=C(c1ccccc1NS(=O)(=O)c1ccc(Cl)cc1)N1CCc2ccccc21 | -2% | -14%
Cc1ccc(S(=O)(=O)N2CCSCCSCCSCCSCC2)cc1 | i | -11%
CCCCC(O)(CCCC)C(=O)NN(C(=O)OC)c1ccccc1 | -5% | -6%
Cc1nc([N+](=O)[O-])c(Br)n1CC(=O)c1ccc(Cl)cc1 | · | ?
Cn1c(-c2ccccc2)cc2c3no[n+]([O-])c3ccc21 | -13%[1.46 µM] | ?
Cc1cccc(CCNC(=O)C2CCC(CNS(=O)(=O)c3cccs3)CC2)c1 (centres undefined) | i | -6%
CC(C)c1ccc(NC(=O)COc2ccc(F)cc2C(=O)c2cnn(-c3ccccc3)c2)cc1 | -26% | -28%
O=C(COc1ccc(/C=N/NS(=O)(=O)c2ccccc2)cc1)Nc1ccc(F)cc1 | · | -17%
O=C(c1ccccc1)C1CC1c1ccccc1 (centres undefined) | i | -7%
CC1CC(C)(C)NC(=O)O1 (centres undefined) | · | -13%
O=C(CCCC(=O)N1CCCC1)N1CCCC1 | -14% | 2%
CCN1CCN(C(c2cccc(OC)c2)c2sc3nc(C)nn3c2O)CC1 (centres undefined) | i | -14%
Cn1c(=O)c2c(nc(N/N=C/c3cccnc3)n2Cc2ccc(F)cc2)n(C)c1=O | i | -6%
CC(C)CCNC(=O)c1ccc2nc[nH]c2c1 | i | -2%
CCOc1ccc(-c2nc(N)ncc2-c2ccccc2)c(O)c1 | ? | ?
CC(C)(C)NC(=O)C(=O)NNC(=O)c1cccc([N+](=O)[O-])c1 | -1% | -3%
COc1ccc(-c2n[nH]c(C)c2-c2ccccc2OC)c(O)c1 | ? | -18%

Following part
SMILES | Vaccinia mCherry | VACV Venus inh
CCn1c(SCC(=O)c2ccc(O)c(O)c2)nnc1-c1ccccc1 | -1% | -8%
CCN(CC)C(=O)c1sc(NC(=O)c2ccco2)c(C#N)c1C | ? | -11%
COc1ccc(OC)c2sc(NC(=O)CCS(=O)(=O)c3ccccc3)nc12 | -8% | ?
CS(=O)(=O)c1ccc2nc(NC(=O)c3cccs3)sc2c1 | · | ?
COCCNc1nc2c(-c3cccc(C(F)(F)F)c3)nnn2c2ccccc12 | i | -9%
COc1ccc(Cl)cc1NC(=O)NCCc1c(C)nn(C)c1C | i | -3%
Cc1ccc(S(=O)(=O)N2CCCCC2)cc1NC(=O)CSc1nnnn1C | -9% | -6%
COc1ccc(C2CC(=O)c3cnc(NC(=O)c4ccco4)nc3C2)cc1 (centres undefined) | -12% | -9%
CCOc1ccc(NC(=O)Cn2c(=O)c(CNc3ccccc3)cc3cc4c(cc32)OCCO4)cc1 | -3% | 6%
Cc1ccc2nc(SCC(=O)Nc3ccc(C)c(Cl)c3)nc(=O)n2c1 | -4% | -4%
Fc1ccccc1CCNCc1cccc(Cl)c1Cl | -1% | -24%
COc1ccc(NC(=O)COC(=O)CCSc2ccccc2)cc1 | -27% | -16%
COc1cccc(NC(=O)COC(=O)CCCC2=NS(=O)(=O)c3ccccc3N2)c1 | -23% | -3%
Cc1ccc(-n2c(-c3ccccc3)cc(=O)nc2C)cc1 | -14% | -9%
CCc1c(C)sc2c1CCN(Cc1ccccc1)C2c1ccccc1 (centres undefined) | -29% | -10%
C[C@H](NC(=O)c1ccccc1Cl)C(=O)OCC(=O)N1CCN(c2ccccc2)CC1 | -12% | -9%

Complete entries, looked up by structure. Order of values: Vaccinia mCherry, VACV Venus inh
COc1ccc(Cl)cc1NC(=O)NCCc1c(C)nn(C)c1C as listed: i, -3%
Cc1ccc2nc(SCC(=O)Nc3ccc(C)c(Cl)c3)nc(=O)n2c1 as listed: -4%, -4%
COc1ccc(NC(=O)COC(=O)CCSc2ccccc2)cc1 as listed: -27%, -16%
CCn1c(SCC(=O)c2ccc(O)c(O)c2)nnc1-c1ccccc1 as listed: -1%, -8%
Cc1ccc(S(=O)(=O)N2CCCCC2)cc1NC(=O)CSc1nnnn1C as listed: -9%, -6%

Compounds from the list above with a cyano group (5):
SMILES | Vaccinia mCherry | VACV Venus inh
CCCC1=C(C(=O)OCC)C(c2cccs2)C(C#N)=C(N)O1 (centres undefined) | -20% | -11%
Cc1ccccc1Cn1cccc(C(=O)Nc2cc(Cl)ccc2C#N)c1=O | -29% | -29%
CCOc1ccc(NC(=O)/C(C#N)=C\c2ccc(-c3ccc(Cl)cc3)o2)cc1 | -29% | -20%
CCN1CCN(c2nc3c(C)cccn3c(=O)c2/C=C(\C#N)S(=O)(=O)c2ccc(C)cc2)CC1 | -6% | -15%
CCN(CC)C(=O)c1sc(NC(=O)c2ccco2)c(C#N)c1C | ? | -11%
